From PubChem
MLL AF4-AF9 inh = blocks AF4 peptide binding to human AF9; AID 651704; P42568; 0.47% of 350,000 active; inhibition, % at 10 µM; AlphaScreen, biotin-AF4 peptide binding to FLAG-AF9;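 active means every replicate reaching a set inhibition limit, whatever the replicate mean, cut at about 25% in these data; inconclusive means mean inhibition reaches that limit but some replicates miss it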;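 further: 0% = plate neutral control median and 100% = total signal loss; the record names both 10 and 1 µM as test concentration; the first replicate is given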
Target sequence (P42568 whole entry, looked up): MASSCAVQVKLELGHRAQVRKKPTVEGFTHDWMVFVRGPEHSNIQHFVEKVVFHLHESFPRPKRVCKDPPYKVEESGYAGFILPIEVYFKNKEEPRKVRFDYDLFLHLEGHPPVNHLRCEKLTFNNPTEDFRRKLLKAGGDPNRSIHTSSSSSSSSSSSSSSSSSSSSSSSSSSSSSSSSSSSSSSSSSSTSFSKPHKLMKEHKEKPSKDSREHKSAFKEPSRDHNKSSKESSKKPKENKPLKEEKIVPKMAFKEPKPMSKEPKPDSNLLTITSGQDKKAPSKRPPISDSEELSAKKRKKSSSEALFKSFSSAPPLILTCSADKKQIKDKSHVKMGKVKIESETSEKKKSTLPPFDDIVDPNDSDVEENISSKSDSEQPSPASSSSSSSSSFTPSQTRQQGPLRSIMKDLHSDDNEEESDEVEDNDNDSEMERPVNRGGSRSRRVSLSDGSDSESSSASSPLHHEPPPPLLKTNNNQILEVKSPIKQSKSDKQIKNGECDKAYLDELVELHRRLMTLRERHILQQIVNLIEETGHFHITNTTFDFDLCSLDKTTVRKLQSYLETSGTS
HNF4A DNA FP = change in binding of human HNF4 alpha to DNA | 0.3% of 360,000 active | HNF4a-FITC DNA binding, fluorescence polarization, 1 h | P41235 | activity change, % at 10 µM; in the data active means activity change above about 30%, passing the limit was not always enough;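 further: controls were the assay level and a saturating level of protein; the project sought stronger binding though the title names inhibitors; some compounds called inactive have numbers as strong as hits; positive values seem to mean higher polarization but the record does not say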
RanGTP-Imp inh = inhibitors of RanGTP-importin-beta interaction, primary screen, biochemical, FRET, CFP-Ran, YFP-importin-beta, homogeneous; AID 2216; 1.1% of 300,000 active; inhibition, % (no concentration beside the values); cell-free CFP-Ran/YFP-importin-beta FRET ratio;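 active means most replicates above 15%; inconclusive means exactly half above 15%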;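 further: 0% = DMSO wells and 100% = Ran loaded with GDP instead of GTP; wells of about 40 µL received 100 nL stock; the first replicate is given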
FGF22 binding = FGF22 (human) thermal shift binding; 1.5% of 340,000 active; Q9HCT0; calls only at 9.99 µM; recombinant FGF22 thermal shift, SYPRO orange fluorescence; percent of sucrose octasulfate shift, DMSO zero;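 active means melting point raised past a set limit in the mean and every replicate; inconclusive means no clear call; three in four hits are not shown here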
Target sequence (Q9HCT0 whole entry, looked up): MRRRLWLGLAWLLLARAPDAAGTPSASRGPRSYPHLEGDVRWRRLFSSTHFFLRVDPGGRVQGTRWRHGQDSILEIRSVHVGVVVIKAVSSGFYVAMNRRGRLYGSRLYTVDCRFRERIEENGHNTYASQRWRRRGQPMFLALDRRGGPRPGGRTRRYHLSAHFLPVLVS
E coli growth = inhibitors of Escherichia coli growth | OD600, 23 h; hits give low values | OD600 absorbance (no concentration beside the values) | 0.21% of 330,000 active | AID 1053175;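 active means OD600 absorbance below the run mean of sample wells minus 3.6 SD, in any replicate, cut at about 0.56 in these data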;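 further: stock transfer was 300 nL into about 60 µL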
Vif TR-FRET = inhibitors of Vif binding to APOBEC3G peptide, primary screen, biochemical, TR-FRET, GST-Vif 1-94, biotin-A3G peptide, dose response retest (AID 1117319); TR-FRET GST-Vif / biotin-A3G peptide binding; higher % means a stronger effect; test concentration not given here; strong numbers were not always called active; inhibition, %; hits with a dose series show IC50 in µM; 0.57% of 260,000 active;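 active means above the screen mean plus three standard deviations and confirmed in dose response; inconclusive means results disagree or hit not tested in dose response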;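 further: Vif residues 1-94 fused to GST binding biotinylated APOBEC3G peptide 110-148; 0% = full assay without inhibitor and 100% = GST in place of GST-Vif; retest series ran down from 100 µM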
UCH37 DUB inh = blocks the human deubiquitinase UCH37; inhibition, % (no concentration beside the values); purified proteasome/UCH37, Ub-AMC cleavage fluorescence; Q9Y5K5; 0.33% of 330,000 active; AID 588478;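 active means mean of two replicates above 20%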;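 further: 0% = compound-free wells with enzyme and 100% = wells lacking proteasome; stock transfer was 100 nL into about 20 µL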
Target sequence (Q9Y5K5 whole entry, looked up): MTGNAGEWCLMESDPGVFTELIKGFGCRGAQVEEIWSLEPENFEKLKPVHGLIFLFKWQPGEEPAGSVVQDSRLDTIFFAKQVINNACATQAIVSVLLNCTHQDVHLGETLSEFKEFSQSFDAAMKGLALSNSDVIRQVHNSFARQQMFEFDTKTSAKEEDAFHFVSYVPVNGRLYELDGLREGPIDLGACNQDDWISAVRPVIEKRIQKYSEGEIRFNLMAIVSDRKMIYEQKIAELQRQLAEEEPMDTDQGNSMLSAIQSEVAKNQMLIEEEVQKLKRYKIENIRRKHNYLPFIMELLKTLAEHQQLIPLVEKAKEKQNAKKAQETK
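assay system = human UCH37 enzyme supplied as purified proteasome complex | amount = proteasome at 0.15 nM in the dispensed enzyme solution | schedule = 30 min compound-proteasome preincubation then 25 min substrate reaction, room temperature | measured by = fluorescence, ex 355 nm, em 460 nm | benchmarks = no-proteasome wells (full inhibition) and compound-free wells (no inhibition)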
* = called active by the depositor; i = inactive; ? = inconclusive; . = not tested or not shown; + = active, no number. These rows are one share of the data. The share of hits here may be higher or lower than overall.

MLL AF4-AF9 inh	HNF4A DNA FP	RanGTP-Imp inh	FGF22 binding	E coli growth	Vif TR-FRET	UCH37 DUB inh	SMILES
8.1	-0.3	-0.1	i	0.66	0%	5.4	O=C1OCC(CO)(CO)N=C1NNc1ccccc1Cl
3.4	5.4	6.9	i	0.61	-12%	-1.8	Cc1ccccc1CSc1ncc(C#N)c(N)n1
.	-0.2	4.3	.	0.69	2%	2.4	CN(C)CCC(=O)c1ccc(Cl)cc1
.	2.0	3.5	.	0.8	24%	1.0	Cc1ccc(SCCNC(=O)CN(c2ccc3c(c2)OCO3)S(C)(=O)=O)cc1
.	0.9	-1.5	.	0.72	.	2.4	CC1(C)CC(=O)C(N=Nc2c(Cl)cc(Cl)cc2Cl)=C(O)C1
-0.1	1.6	0.9	i	0.71	2%	3.9	CC(=O)Nc1nc2c(s1)C(=O)NCCC2
13	-0.3	4.1	i	0.67	.	6.4	COc1cc(C(=S)N2CCN(C(c3ccccc3)c3ccccc3)CC2)cc(OC)c1O
2.8	-2.0	2.3	i	0.63	5%	-0.1	CCOC(=O)c1cc(CC)sc1NC(=O)CN1C(=O)C(=O)N(CC(C)C)C1=O
-2.5	-1.9	-0.7	i	0.72	.	-14	CN(CC(=O)Nc1ccccc1C(F)(F)F)C(=O)COc1ncnc2ccccc12
3.6	0.3	-6.1	i	.	12%	.	c1ccc2c(c1)CC/C2=N/Nc1nc2ccccc2[nH]1
-2.2	-9.8	-1.4	i	.	-5%	0.8	C/C=C/C=C\C(=O)Nc1cccc(C2=NOC3(C2)C[C@H](C(N)=O)N(C(=O)CC#N)C3)c1 (stereo partly drawn)
.	1.9	0.3	.	0.69	0%	-5.9	COC(=O)CNC(=O)COc1ccccc1
1.0	0.4	.	i	0.66	.	2.9	CCC1(c2ccccc2)NC(=O)N(CC(=O)N2CCc3ccccc32)C1=O (stereo not drawn)
.	0.0	0.4	.	.	-6%	.	Cc1ccc(S(=O)(=O)/N=c2\sccn2C)cc1
-0.4	3.9	.	i	.	-10%	.	COc1ccc(C2C(C)C(=O)C(C)C(c3ccc(OC)cc3)N2N=O)cc1 (stereo not drawn)
-1.7	-3.4	-3.2	i	0.71	.	-1.6	O=C(NC(=S)NCCCN1CCOCC1)c1ccco1
-13	-5.8	.	i	0.71	-4%	4.5	C=CCn1c(SCC(=O)Nc2ccccc2OC)nc2c([nH]c3ccccc32)c1=O
.	0.4	-1.6	.	0.65	0%	-0.8	CC(=O)c1ccc(S(=O)(=O)NCCCC(=O)NCCc2ccccn2)cc1
12	5.1	1.2	i	0.7	4%	14	Cc1ccccc1Cn1c(O)c(N=NC(=S)Nc2ccccc2F)c2ccccc21
.	0.0	0.9	.	0.71	12%	-0.3	CC1=Nc2ccccc2NC(=O)C1Sc1nnc(C)s1 (stereo not drawn)
2.9	-1.4	-0.2	i	0.68	-3%	4.5	COc1ccc(CN(C)C(=O)Cc2c[nH]c3ccccc23)c(OC)c1OC
-2.2	-0.9	0.7	i	0.7	1%	2.2	CC(C(=O)Nc1cccc([N+](=O)[O-])c1)[n+]1ccccc1 (stereo not drawn)
1.0	2.0	?	i	0.7	.	-1.2	CCOC(=O)N1CCN(CC(=O)Nc2sccc2C#N)CC1
-1.1	-1.4	?	i	.	?	.	Cn1cc([N+](=O)[O-])c(C(=O)NC2CCCCCCC2)n1
13	1.6	-2.1	i	0.67	.	2.8	CC(C)CCn1c(=O)[nH]c2ccccc21
.	.	0.1	.	0.73	5%	2.3	O=C(CSc1ccccn1)NC1CCCC1
-3.6	2.6	.	i	.	>100µM*	2.7	C[C@@H]1NC(=O)[C@H](CCC(N)=O)NC(=O)c2cc([N+](=O)[O-])cc(I)c2NCCC[C@@H](C(N)=O)NC1=O
-2.7	-0.7	-1.2	i	0.62	-1%	0.3	COc1cc(NC(=O)C2CCCN(S(=O)(=O)c3ccc4[nH]c(=O)ccc4c3)C2)cc(OC)c1 (stereo not drawn)
-4.1	1.1	-3.6	i	0.65	4%	4.9	COc1ccc(C2c3c(-c4ccccc4O)n[nH]c3C(=O)N2Cc2ccco2)cc1 (stereo not drawn)
.	1.1	-1.0	.	0.7	6%	0.6	CCCCn1nnnc1SCC(=O)NCc1ccccc1

Gathered by group, the compounds so far with two or more sulfur atoms (three)
MLL AF4-AF9 inh	HNF4A DNA FP	RanGTP-Imp inh	FGF22 binding	E coli growth	Vif TR-FRET	UCH37 DUB inh	SMILES
.	2.0	3.5	.	0.8	24%	1.0	Cc1ccc(SCCNC(=O)CN(c2ccc3c(c2)OCO3)S(C)(=O)=O)cc1
.	0.0	0.4	.	.	-6%	.	Cc1ccc(S(=O)(=O)/N=c2\sccn2C)cc1
.	0.0	0.9	.	0.71	12%	-0.3	CC1=Nc2ccccc2NC(=O)C1Sc1nnc(C)s1 (stereo not drawn)

Ordered by the number under UCH37 DUB inh (ascending): 3 from the list above.
MLL AF4-AF9 inh	HNF4A DNA FP	RanGTP-Imp inh	FGF22 binding	E coli growth	Vif TR-FRET	UCH37 DUB inh	SMILES
.	1.1	-1.0	.	0.7	6%	0.6	CCCCn1nnnc1SCC(=O)NCc1ccccc1
.	.	0.1	.	0.73	5%	2.3	O=C(CSc1ccccn1)NC1CCCC1
1.0	0.4	.	i	0.66	.	2.9	CCC1(c2ccccc2)NC(=O)N(CC(=O)N2CCc3ccccc32)C1=O (stereo not drawn)

Next part:
MLL AF4-AF9 inh	HNF4A DNA FP	RanGTP-Imp inh	FGF22 binding	E coli growth	Vif TR-FRET	UCH37 DUB inh	SMILES
.	-7.2	?	.	0.72	4%	-1.7	Cc1cc(C)c2[nH]c(=O)c(CN(CC3CCCO3)C(=O)C3CCCO3)cc2c1 (stereo not drawn)
-0.5	5.2	-4.0	+	0.72	.	4.8	CC(=O)Nc1ccc(S(=O)(=O)Nc2ccn(Cc3ccccc3Cl)n2)cc1
-1.0	1.8	.	i	.	.	.	COCC(Cc1ccccc1)NC(=O)Cn1cc(C)c(=O)[nH]c1=O (stereo not drawn)
2.7	4.9	1.6	i	0.74	15%	3.0	CC(C)NC(=O)c1cc(-c2ccco2)on1
.	-0.8	2.8	.	0.74	0%	2.4	CCC(C(=O)O/N=C(\N)c1ccccc1)c1ccccc1 (stereo not drawn)
.	0.8	2.1	.	0.65	3%	0.8	N=C1C(c2nc(-c3ccc(F)cc3)cs2)=C(O)CN1CCCN1CCOCC1
-4.9	0.1	1.0	i	.	-10%	.	COc1cccc(/C=N/n2c(C3CCCCC3)n[nH]c2=S)c1OC
4.6	-3.0	-1.9	i	0.72	1%	4.3	Brc1ccc(-c2noc(COc3ccc4ccccc4c3)n2)o1
3.5	1.9	-4.7	i	0.71	0%	-13	CCc1ccc(NC(=O)c2cc(-c3ccc(OC)cc3)on2)cc1
-32	2.4	-1.2	i	0.65	.	3.6	COc1ccc(CCNC(=O)C(C(=O)c2ccc(F)cc2)n2ccccc2=O)cc1OC (stereo not drawn)
3.3	4.3	9.8	i	0.72	19%	6.3	Cc1ccc(NC(=O)CN(c2ccc3c(c2)OCO3)S(=O)(=O)c2c(C)n[nH]c2C)cc1
0.0	-5.3	-0.9	i	0.65	-8%	1.7	Cc1ccc(N(CCC#N)C(=O)COC(=O)C2CCN(S(=O)(=O)c3ccc4c(c3)OCCO4)CC2)cc1
11	-3.9	1.9	i	0.71	4%	1.3	O=C(c1ccc([N+](=O)[O-])cc1)N1CCN=C1SCc1ccccc1
0.9	-3.0	.	i	0.69	.	5.0	COc1ccc(-c2csc(NCCn3c(C)nc4cc(C(F)(F)F)ccc43)n2)cc1
6.1	-1.3	.	i	.	8%	.	Cc1nc(Br)c(Br)n1Cc1ccccc1
-0.5	-1.3	.	i	.	.	.	CCCOc1ccc(F)cc1-c1cc(C(=O)NCc2cccc(C(F)(F)F)c2)[nH]n1
0.7	-1.4	-2.9	i	0.7	5%	5.7	O=C(CCN1C(=O)C2CC=CCC2C1=O)Nc1cc(C(F)(F)F)ccc1N1CCCC1 (stereo not drawn)
.	0.4	1.7	.	0.7	?	6.4	O=[N+]([O-])c1ccc(O)c(-c2nn[nH]n2)c1
1.7	-1.4	.	i	.	.	.	COCCc1ccc(OC2(C)CCN(Cc3cccn3-c3nccs3)C2)cc1 (stereo not drawn)
.	3.5	2.3	.	.	.	-4.0	NCCCC[C@@H](C(=O)NCCCCCCCCCCC(=O)N1CCNCC1)n1cc(CCCC(=O)O)nn1
.	.	1.0	.	0.7	7%	-1.8	N#C/C(=C\c1cn(Cc2ccccc2C#N)c2ccccc12)C(=O)NCc1cccs1
-3.0	1.3	-0.9	i	0.67	.	2.4	Cc1cc(C)cc(NC(=O)CNC(c2ccccc2)c2ccccc2)c1
-2.9	-0.9	-2.9	i	0.68	.	-0.9	COc1cccc(CC(=O)Nc2ccc3nc(C)sc3c2)c1
0.4	-7.0	3.3	i	0.59	-2%	0.6	COc1ccc(COC(=O)Nc2cn(C)nc2C(F)(F)F)cc1
9.7	4.6	0.3	i	0.72	.	-1.3	CCc1ccc(NC(=O)CSc2nc3ccccc3nc2N2CCCCC2)cc1
.	0.3	0.4	.	0.68	-4%	5.4	O=C(CN(C(=O)c1ccc(Cl)cc1Cl)N1C(=O)C2C3C=CC(C3)C2C1=O)c1ccc(F)cc1 (stereo not drawn)
0.9	-11	0.1	i	0.63	.	5.3	O=C(c1ccc(CS(=O)(=O)c2ccccc2)o1)N1CCN(c2ccccc2)CC1
-0.4	6.5	3.0	i	0.7	.	1.4	COc1ccccc1C(=O)NCCC(=O)N1CCCC(C)C1 (stereo not drawn)
-2.7	15	1.8	i	0.64	0%	5.4	Cc1ccc(C23CC4CC(CC(C(=O)OCC(=O)N(C)C)(C4)C2)C3)cc1
-4.8	-0.2	11	i	0.72	.	2.6	COc1ccc(OC)c(C(=O)c2coc3cc(Br)c(O)c(Br)c23)c1

Only Vif TR-FRET, E coli growth and FGF22 binding, for 3 of the compounds above:
smiles,Vif TR-FRET,E coli growth,FGF22 binding
CC(=O)Nc1ccc(S(=O)(=O)Nc2ccn(Cc3ccccc3Cl)n2)cc1,.,0.72,+
COc1cccc(CC(=O)Nc2ccc3nc(C)sc3c2)c1,.,0.68,i
Brc1ccc(-c2noc(COc3ccc4ccccc4c3)n2)o1,1%,0.72,i

(next part)
MLL AF4-AF9 inh	HNF4A DNA FP	RanGTP-Imp inh	FGF22 binding	E coli growth	Vif TR-FRET	UCH37 DUB inh	SMILES
0.8	-0.6	2.7	i	0.77	-5%	6.2	CCOC(=O)c1c(NC(=O)CN2CCCCC2)sc2c1CCCC2O (stereo not drawn)
-1.2	2.0	.	i	0.69	.	-1.1	O=C(Nc1ccc2c(c1)Cc1cc([N+](=O)[O-])ccc1-2)C(F)(F)F
-9.1	-1.4	.	i	.	.	.	CCOC(=O)[C@]12CCCC=C1N(Cc1ccccc1)C(=O)[C@H](CC(=O)NCc1cccc(C(F)(F)F)c1)C2
5.8	-0.7	-0.9	i	0.68	-3%	2.6	Cn1c(=O)c2c(nc(Oc3ccccc3Br)n2C)n(C)c1=O
-3.7	4.3	0.8	i	0.68	-1%	-1.7	COc1ccc(CCNC(=O)CN2C(=O)NC(C)(c3ccc([N+](=O)[O-])cc3)C2=O)cc1 (stereo not drawn)
.	2.6	2.2	.	0.75	0%	1.1	COCn1c(COc2ccc3ccccc3c2)nc2ccccc21
4.9	3.0	?	i	.	6%	.	COc1ccccc1NC(C)C(=O)N/N=C/c1ccccc1OCc1cccc(Br)c1 (stereo not drawn)
0.2	0.6	6.5	i	0.71	.	5.8	CCSc1cnn(-c2ccccc2)c(=O)c1Cl
0.7	2.5	3.4	.	0.66	-9%	4.8	COc1ccccc1CNc1ncnc2cc(OC)c(OC)cc12
.	1.4	4.1	.	0.78	25%	5.1	Cn1c(=O)c2c(nc(NCc3cccnc3)n2Cc2cccc(C(F)(F)F)c2)n(C)c1=O
.	3.0	?	.	0.73	4%	1.7	Cc1ccc(CNC(=O)CCCNC(=O)c2ccc(Cl)cc2)n1C
